Screening data from PubChem.
FGF22 binding: shifts melting point of recombinant human FGF22 | Q9HCT0 | actives 1.5% (n = 340,000) | calls only at 9.99 µM | recombinant FGF22 thermal shift, SYPRO orange fluorescence; percent of sucrose octasulfate shift, DMSO zero;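 active = melting point raised past a set limit in the mean and every replicate; inconclusive = no clear call; three in four hits are not shown here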
Target sequence (Q9HCT0 whole entry, looked up): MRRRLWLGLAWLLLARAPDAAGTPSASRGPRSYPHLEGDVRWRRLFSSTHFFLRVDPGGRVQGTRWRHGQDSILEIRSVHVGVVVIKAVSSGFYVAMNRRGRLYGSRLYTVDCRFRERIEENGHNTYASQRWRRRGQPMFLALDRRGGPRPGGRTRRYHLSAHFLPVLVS
Vif A3G: HIV-1 Vif–A3G interaction blockers – biochemical, TR-FRET, GST-Vif 1-94, biotin-A3G peptide, dose response retest, primary screen (AID 1117319) | actives 0.57% (n = 260,000) | TR-FRET GST-Vif / biotin-A3G peptide binding; higher % means a stronger effect; test concentration not given here; strong numbers were not always called active | inhibition, %; hits with a dose series show IC50 in µM;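 active = above the screen mean plus three standard deviations and confirmed in dose response; inconclusive = results disagree or hit not tested in dose response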;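 also: Vif residues 1-94 fused to GST binding biotinylated APOBEC3G peptide 110-148; 0% = full assay without inhibitor and 100% = GST in place of GST-Vif; retest series ran down from 100 µM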
RanGTP-Imp inh: disruptors of Ran-importin-beta complex formation – biochemical, FRET, CFP-Ran, YFP-importin-beta, homogeneous, primary screen; cell-free CFP-Ran/YFP-importin-beta FRET ratio; actives 1.1% (n = 300,000); AID 2216; inhibition, % (no concentration beside the values);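 active = most replicates above 15%; inconclusive = exactly half above 15%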;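 also: 0% = DMSO wells and 100% = Ran loaded with GDP instead of GTP; wells of about 40 µL received 100 nL stock; the first replicate is given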
UCH37 DUB inh: human UCH37 deubiquitinating enzyme inhibition | AID 588478 | Q9Y5K5 | actives 0.33% (n = 330,000) | purified proteasome/UCH37, Ub-AMC cleavage fluorescence | inhibition, % (concentration not given with the values);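 active = mean of two replicates above 20%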;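 also: 0% = compound-free wells with enzyme and 100% = wells lacking proteasome; stock transfer was 100 nL into about 20 µL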
Target sequence (Q9Y5K5 whole entry, looked up): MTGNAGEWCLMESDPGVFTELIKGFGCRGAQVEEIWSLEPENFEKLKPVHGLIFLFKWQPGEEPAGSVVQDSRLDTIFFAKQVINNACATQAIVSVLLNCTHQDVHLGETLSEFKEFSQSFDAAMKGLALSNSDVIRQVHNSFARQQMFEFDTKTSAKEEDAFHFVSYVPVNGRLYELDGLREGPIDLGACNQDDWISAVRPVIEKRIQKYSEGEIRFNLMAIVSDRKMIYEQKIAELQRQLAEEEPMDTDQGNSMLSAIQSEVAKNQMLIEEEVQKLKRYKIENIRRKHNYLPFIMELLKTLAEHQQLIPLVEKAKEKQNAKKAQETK
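assay system = human UCH37 enzyme supplied as purified proteasome complex | amount = proteasome at 0.15 nM in the dispensed enzyme solution | schedule = 30 min compound-proteasome preincubation then 25 min substrate reaction, room temperature | measured by = fluorescence, ex 355 nm, em 460 nm | benchmarks = no-proteasome wells (full inhibition) and compound-free wells (no inhibition)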
HNF4A DNA FP: change in binding of human HNF4 alpha to DNA. P41235. activity change, % at 10 µM. AID 1224865. actives 0.3% (n = 360,000). HNF4a-FITC DNA binding, fluorescence polarization, 1 h; in the data active = activity change above about 30%, passing the limit was not always enough;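 also: controls were the assay level and a saturating level of protein; the project sought stronger binding though the title names inhibitors; some compounds called inactive have numbers as strong as hits; positive values seem to mean higher polarization but the record does not say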
Target sequence (P41235 whole entry, looked up): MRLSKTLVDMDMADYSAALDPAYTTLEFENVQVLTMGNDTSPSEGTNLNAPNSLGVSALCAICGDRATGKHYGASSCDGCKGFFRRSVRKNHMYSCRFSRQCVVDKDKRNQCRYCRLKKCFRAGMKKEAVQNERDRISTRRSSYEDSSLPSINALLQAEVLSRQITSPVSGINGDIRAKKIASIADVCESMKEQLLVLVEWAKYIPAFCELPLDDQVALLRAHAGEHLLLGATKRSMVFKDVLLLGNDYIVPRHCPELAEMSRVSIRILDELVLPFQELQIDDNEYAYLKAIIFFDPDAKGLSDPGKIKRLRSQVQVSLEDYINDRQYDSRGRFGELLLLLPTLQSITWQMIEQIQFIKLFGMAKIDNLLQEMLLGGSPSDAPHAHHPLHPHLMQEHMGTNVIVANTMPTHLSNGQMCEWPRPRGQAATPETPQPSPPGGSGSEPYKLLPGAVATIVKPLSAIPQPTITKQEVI
Ecoli growth: blocks Escherichia coli growth; OD600, 23 h; active compounds read low; OD600 absorbance (test concentration not listed); AID 1053175; actives 0.21% (n = 330,000);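 active = OD600 absorbance below the run mean of sample wells minus 3.6 SD, in any replicate, cut at about 0.56 in these data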;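 also: stock transfer was 300 nL into about 60 µL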
MLL AF4-AF9 inh: MLL-AF4/AF9 protein interaction inhibition; AID 651704; P42568; actives 0.47% (n = 350,000); inhibition, % at 10 µM; AlphaScreen, biotin-AF4 peptide binding to FLAG-AF9;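 active = every replicate reaching a set inhibition limit, whatever the replicate mean, cut at about 25% in these data; inconclusive = mean inhibition reaches that limit but some replicates miss it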;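 also: 0% = plate neutral control median and 100% = total signal loss; the record names both 10 and 1 µM as test concentration; the first replicate is given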
* hit, by the source's call; i = inactive; ? = inconclusive; nt = no result given; & = joins results of further samples.

SMILES | FGF22 binding | Vif A3G | RanGTP-Imp inh | UCH37 DUB inh | HNF4A DNA FP | Ecoli growth | MLL AF4-AF9 inh
Cc1ccc(S(=O)(=O)N2CCC(C(=O)N3CC(C)OC(C)C3)CC2)cc1 (stereo not given) | i | nt | 8.3 | 0.9 | 0.9 | 0.69 | -6.7
CCCC1OC(c2ccco2)OCC1CC (stereo not given) | i | 8% | nt | 2.4 | 1.8 | 0.68 | -1.5
COc1ccc(NC(=O)/C(C#N)=C/c2ccc3c(c2)n(C)c(=O)n3C)cc1 | nt | 2% | -1.8 | -3.6 | -4.0 | 0.67 | nt
S=C(Nc1ccccc1)N1CCN(C/C=C/c2ccccc2)CC1 | i | nt | 1.4 | 4.4 | 4.5 | 0.62 | 4.9
O=c1[nH]c(CSc2nc3ccccc3s2)nc2cc(Cl)ccc12 | i | nt | 8.1 | -2.4 | nt | 0.69 | -1.6
CN(CCc1ccccn1)C(=O)c1cccnc1Oc1ccc(Cl)cc1 | i | -6% | -0.6 | 4.7 | 2.2 | 0.68 | -0.3
O=C1CCN(S(=O)(=O)c2ccccc2)CCN1CCOCc1ccc(Cl)cc1 | i | nt | 0.6 | -0.8 | -4.7 | 0.7 | -1.3
CC1CN(C(=O)c2ccc(S(=O)(=O)Nc3ccccc3F)cc2)CC(C)O1 (stereo not given) | i | -6% | 2.0 | 1.7 | 1.0 | 0.64 | -2.8
O=C(Nc1ccccc1)C(=O)Nc1ccccn1 | nt | 11% | -3.6 | 0.6 | -1.0 | 0.72 | nt
COc1ccccc1CNC(=O)CSc1ccc(-c2cccs2)nn1 | i | -4% | -1.3 | nt | 1.1 | nt | -3.0
Cc1c(C(=O)N2CCc3ccccc3C2)sc2nc(-c3ccccc3)cn12 | nt | -5%&6% | -2.5 | 4.2 | -3.9 | 0.69 | nt
C=CCn1c2[n+](c3ccccc3c1=O)CCCCC2 | i | 16% | -4.9 | -5.7 | -4.2 | 0.65 | 0.1
Cc1ccc(CNC(=O)CCC2CCCN(C(=O)CCC(F)(F)F)C2)o1 (stereo not given) | i | 0% | 1.5 | -1.3 | 0.5 | 0.71 | -1.5
O=C(CN1C(=O)S/C(=C\c2cc(Cl)c(O)c(Cl)c2)C1=O)Nc1ccccc1 | nt | nt | 51* | 3.4 | 38* | 0.69 | 0.9
O=C(Nc1ccccc1)N1CCCC(c2nc(-c3ccc(F)cc3)no2)C1 (stereo not given) | nt | 1% | -1.8 | 2.7 | -2.1 | 0.75 | nt
COc1cc(NC(=O)c2cccc(F)c2)cc(OC)c1OC | i | -4% | 1.0 | 0.2 | 2.1 | 0.68 | 0.5
CC(=O)N1c2ccccc2-c2nc3ccccc3n2C1C (stereo not given) | i | -15% | -2.3 | 3.0 | 0.6 | 0.67 | 1.6
Cc1cccc(Cn2c(SCC(=O)Nc3ccccc3)nc3c2c(=O)[nH]c(=O)n3C)c1 | i | -2% | 0.5 | 3.1 | -1.9 | 0.72 | 8.1
CCN(CC)S(=O)(=O)c1ccc(Cl)c(C(=O)NC2CCN(Cc3ccccc3)CC2)c1 | i | -4% | 1.2 | 2.1 | 1.2 | 0.67 | 0.1
Cc1ccc(C(=O)CN(C(=O)c2ccc(Cl)c(Cl)c2)N2C(=O)C3CCCCC3C2=O)cc1C (stereo not given) | nt | -7% | -4.1 | 1.3 | -0.4 | 0.74 | nt

A few values from the results shown:
For HNF4A DNA FP, Cc1ccc(CNC(=O)CCC2CCCN(C(=O)CCC(F)(F)F)C2)o1 (stereo not given) has 0.5
For RanGTP-Imp inh, O=C(Nc1ccccc1)C(=O)Nc1ccccn1 has -3.6

Some of the entries above in another layout:
| Compound | FGF22 binding | Vif A3G | RanGTP-Imp inh | UCH37 DUB inh | HNF4A DNA FP | Ecoli growth | MLL AF4-AF9 inh |
| --- | --- | --- | --- | --- | --- | --- | --- |
| O=c1[nH]c(CSc2nc3ccccc3s2)nc2cc(Cl)ccc12 | i | nt | 8.1 | -2.4 | nt | 0.69 | -1.6 |
| CN(CCc1ccccn1)C(=O)c1cccnc1Oc1ccc(Cl)cc1 | i | -6% | -0.6 | 4.7 | 2.2 | 0.68 | -0.3 |
| COc1ccccc1CNC(=O)CSc1ccc(-c2cccs2)nn1 | i | -4% | -1.3 | nt | 1.1 | nt | -3.0 |
| S=C(Nc1ccccc1)N1CCN(C/C=C/c2ccccc2)CC1 | i | nt | 1.4 | 4.4 | 4.5 | 0.62 | 4.9 |
| COc1ccc(NC(=O)/C(C#N)=C/c2ccc3c(c2)n(C)c(=O)n3C)cc1 | nt | 2% | -1.8 | -3.6 | -4.0 | 0.67 | nt |

(further entries)
SMILES | FGF22 binding | Vif A3G | RanGTP-Imp inh | UCH37 DUB inh | HNF4A DNA FP | Ecoli growth | MLL AF4-AF9 inh
C1=CCC(CN2CCNCC2)CC1 (stereo not given) | i | nt | 1.3 | 0.1 | -0.8 | 0.71 | 3.8
O=C(NCc1ccccc1)c1ccc(CS(=O)(=O)c2ccccc2)o1 | nt | 8% | 1.4 | 1.6 | 0.5 | 0.74 | nt
CC(C)NC(=O)C1(C)CN(S(C)(=O)=O)CC(=O)N1Cc1cccc(C(F)(F)F)c1 (stereo not given) | i | nt | nt | nt | -0.4 | nt | 0.9
O=C(Nc1ccc(Cl)cn1)c1cccnc1 | nt | -2% | -2.4 | 3.9 | 0.6 | 0.74 | nt
Cc1cccc(NC(=O)CSc2nc(=O)n(CCCN3CCOCC3)c3c2CCCC3)c1 | i | -2% | 2.0 | 2.0 | 3.7 | 0.69 | -0.5
CCCc1ccccc1OCCNC(C)=O | nt | 0% | 0.7 | 2.7 | -0.7 | 0.71 | nt
Cc1ccc(C(=O)C(C)OC(=O)CNS(=O)(=O)c2ccc(C)cc2)cc1 (stereo not given) | i | nt | nt | -2.3 | 1.4 | 0.69 | -2.0
CCOc1ccccc1NC(=O)N1CCC(C(=O)c2ccc(F)cc2)CC1 | nt | -1% | -3.8 | 4.9 | -2.1 | 0.72 | nt
Cc1ccc(/C=C2\SC(=S)N(C3CCS(=O)(=O)C3)C2=O)cc1 (stereo not given) | i | 6% | 1.3 | 5.9 | -0.6 | 0.63 | -0.9
NC(=O)c1cccc(CC(=O)c2ccccc2)c1 | i | -4% | 0.9 | 1.7 | 2.5 | 0.65 | -0.7
COc1ccc(CNC(=O)COC(=O)CC2CCCC2)cc1 | nt | -2% | 2.9 | 0.9 | -7.1 | 0.71 | nt
CC(OC(=O)c1cccc(-n2cnnn2)c1)C(=O)Nc1ccc(N(C)C)cc1 (stereo not given) | i | 29% | -2.5 | -0.6 | -4.0 | 0.68 | -6.6
CNS(=O)(=O)c1ccc2nc(NC(=O)c3ccc(N4C(=O)CCC4=O)cc3)sc2c1 | i | -2% | 1.2 | 0.5 | 2.0 | 0.67 | -3.4
NC(=O)c1ccc(=O)n(Cc2ccc(Cl)cc2Cl)c1 | i | -16% | 0.4 | 3.2 | 0.8 | 0.67 | -0.6
C#CCOC(=O)C1C2C=CC(C2)C1C(=O)O (stereo not given) | i | 27% | -4.1 | 2.2 | 1.9 | 0.69 | 5.8
O=C(CCCn1c(=S)[nH]c2cc3c(cc2c1=O)OCO3)N1CCN(c2ncccn2)CC1 | nt | -17% | ? | 7.2 | -0.8 | 0.72 | nt
CN(CC(=O)Nc1ccc(Cl)c(C(F)(F)F)c1)C(=O)CCCNC(=O)c1ccc(Cl)cc1 | i | nt | nt | 1.7 | -3.8 | 0.66 | -1.0
OC(CSc1ccccc1)CN1CCN(c2ccccc2)CC1 (stereo not given) | i | 3% | nt | 3.8 | -1.1 | 0.66 | -0.6
O=C(Nc1cc2c(cc1C(=O)O)OCCCO2)c1ccc(F)cc1F | i | nt | -2.1 | 2.0 | 4.6 | 0.63 | -5.0
COCc1cc(C)nc(SCC(=O)Oc2ccccc2)c1C#N | i | -2% | 2.3 | -3.8 | -7.0 | 0.7 | -2.5
O=C(c1nc2ccc(Cl)cn2c1CN1CCC[C@H]1CO)N1CCc2ccccc2C1 | i | 8% | nt | nt | -23 | nt | 1.3
Cc1cccc(C)c1NC(=O)Cn1nnc(-c2ccc(N3CCOCC3)cc2)n1 | nt | 0% | -0.2 | -15 | -2.3 | 0.73 | nt
O=Cc1ccc(Oc2ccc(F)cc2)nc1 | i | 0% | 2.4 | -3.2 | 6.9 | 0.7 | -4.4
CC(C)c1nnc(NC(=O)C2CCCN2C(=O)Nc2cccc(Cl)c2)s1 (stereo not given) | i | 6% | 3.4 | 4.2 | -0.4 | 0.72 | -1.1
COc1ccc(C(=O)NC(=S)N(C)Cc2ccccc2)cc1Br | i | -1% | 5.9 | 0.2 | 3.9 | 0.71 | -0.8
CC(=O)Nc1ccc(NC(=O)c2ccccc2CC[N+](=O)[O-])cc1 | nt | 3% | -2.0 | 5.4 | -3.7 | 0.82 | nt
COc1ccc(CC(=O)OCC(=O)Nc2ncc(Cl)cc2Cl)cc1OC | nt | 0% | 3.8 | 0.5 | 1.0 | 0.7 | nt
O=C(CN1C(=O)NC2(CCc3ccccc32)C1=O)Nc1cccc(Cl)c1 (stereo not given) | i | 1% | nt | 5.9 | -1.7 | 0.72 | -4.8
CCOc1ccc(/C=N/NC2=NCCCCC2)cc1 | i | 7% | ? | nt | -2.1 | nt | -4.0
Cc1c(Cl)cccc1NC(=S)Nc1ccc(S(=O)(=O)Nc2ncccn2)cc1 | i | -9% | nt | 1.9 | -2.5 | 0.66 | -2.2
CCCN1CCN(c2ccc(S(N)(=O)=O)cc2[N+](=O)[O-])CC1 | i | 2% | 1.6 | 5.4 | 0.9 | 0.67 | -0.1
COc1cccc(NC(=O)COC(=O)c2ccccc2F)c1 | i | 12% | -2.7 | 0.3 | 3.2 | 0.64 | -2.0
CC1CCc2c(sc3ncnc(SCC(=O)c4ccccc4)c23)C1 (stereo not given) | nt | -4% | 0.2 | 1.5 | 2.5 | 0.8 | nt
CCc1ccc(NC(=O)C(C)n2nc(C)c([N+](=O)[O-])c2C)cc1 (stereo not given) | i | 3% | -1.9 | 4.8 | 1.4 | 0.69 | 2.3
COC(=O)c1cccc(NCN2C(=O)c3ccccc3C2=O)c1 | nt | 0% | 2.8 | 5.8 | -2.7 | 0.69 | nt
CSc1nncc(/C(C)=N\Nc2cccc(C)c2)n1 | nt | 0% | 3.6 | nt | -1.5 | nt | nt
COc1ccc(OC)c2c(C)cc(NCCN3CCOCC3)nc12 | nt | 6% | -3.6 | -37 | -0.8 | 0.68 | nt
NC(c1csc(Nc2cc(NCc3ccco3)ncn2)n1)c1ccccc1Cl (stereo not given) | i | nt | nt | nt | -0.7 | nt | 1.3
CC(NC(=S)Nc1cccc(C(F)(F)F)c1)C(C)(C)C (stereo not given) | i | -3% | 3.4 | 3.5 | 1.3 | 0.63 | -1.3
CCC1(c2ccccc2)NC(=O)N(CC(=O)N(CC(=O)Nc2ccccc2C(F)(F)F)Cc2ccco2)C1=O (stereo not given) | i | 23% | 4.3 | 5.7 | 4.8 | 0.65 | -0.5
COc1cccc(-n2c(=O)c3sccc3n(CC(=O)NC3CCCC3)c2=O)c1 | i | nt | -2.6 | 4.4 | 2.4 | 0.68 | 1.4
COc1ccc(-c2[nH]ncc2CN(Cc2nccn2C)C(C)C)c(F)c1 | i | nt | -1.9 | 1.0 | -0.1 | 0.69 | 3.2
CC(NC(=O)/C=C/c1ccc(Br)cc1)c1ccccc1 (stereo not given) | nt | 4% | -1.7 | 0.6 | -0.2 | 0.72 | nt
CCN1CCN(C(=O)c2ccc(OC)c(S(=O)(=O)Nc3ccc(C)cc3)c2)CC1 | nt | -8% | ? | 3.4 | 0.7 | 0.67 | -0.7

These rows are one share of the data; count on the stated rates, not on these rows.
